# KOR beta-arrestin-1 – kappa opioid receptor blockers – cell-based, luminescence, uHTS (AID 1778) | inhibition, % at 10 µM, or IC50 in µM where a hit was titrated | KOR beta-arrestin recruitment, luminescence, antagonist mode; higher % means a stronger effect | 290,000 compounds, 0.091% hits; further: strong numbers were not always called active
# PMI inhibition – MPI inhibition at elevated mannose 6-phosphate – biochemical, fluorescence intensity, high mannose 6-phosphate, primary screen (AID 1220). recombinant PMI enzyme, coupled fluorescence intensity; higher % means a stronger effect. 190,000 compounds, 0.66% hits. inhibition, % at 20 µM; hits with a dose series show IC50 in µM
# KOR beta-arrestin-2 – KOR agonists, beta-arrestin recruitment, primary screen, cell-based, luminescence, uHTS (AID 1777) | activation, % at 10 µM, or EC50 in µM where a hit was titrated | 280,000 compounds, 0.02% hits | KOR beta-arrestin recruitment, luminescence; higher % means a stronger effect; in the data active means activation above about 50%, passing the limit was not always enough; further: a part of the inactive calls stands beside numbers as strong as those of hits
# XIAP displacement – small molecules displacing peptide from XIAP – biochemical, IAP family, fluorescence polarization (AID 1018). displacement, % at 20 µM, or IC50 in µM where a hit was titrated. XIAP BIR domain, fluorescence polarization peptide displacement; higher % means a stronger effect. 200,000 compounds, 0.007% hits; in the data active means displacement above about 50%; further: a part of the inactive calls stands beside numbers as strong as those of hits
# human PMI inhibition – MPI enzyme activity inhibition – biochemical, fluorescence intensity, coupled assay, primary screen (AID 1209); inhibition, % at 20 µM; hits with a dose series show IC50 in µM; 190,000 compounds, 0.42% hits; purified PMI enzyme, coupled fluorescence intensity; higher % means a stronger effect;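 further: plate controls were DMSO vehicle for no effect and wells lacking substrate for full effect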
# LYP phosphatase – PTPN22 lymphoid phosphatase activity blockers – biochemical, fluorescence intensity, uHTS (AID 1779). recombinant LYP phosphatase, fluorescence intensity; higher % means a stronger effect. one-dose inhibition, % at 11.5 µM; IC50 in µM for titrated hits. 290,000 compounds, 0.054% hits;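 further: plate controls were vehicle with enzyme for no effect and no enzyme for full effect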
# TNAP activators – human TNAP enzyme activators, primary screen, biochemical, luminescent, no phosphate acceptor, uHTS (AID 1001); purified TNAP, luminescent activation assay, no phosphate acceptor; higher activation fold means a stronger effect; activation fold at 20 µM; hits with a dose series show EC50 in µM; 200,000 compounds, 0.03% hits; in the data active means activation fold from about 3, or a potency from the dose series; inactive means the rest, 99 in 100 with activation fold below about 1.6; further: many of its hits are not listed in these tables
# * = called active by the depositor; nt = no result given; [ ] = dose if it differs, or a comment. Unless noted, no stated cut-off is given here; in the data, active means inhibition above about 50%; inactive means the rest.
# Key to letters – A = KOR beta-arrestin-1; B = PMI inhibition; C = KOR beta-arrestin-2; D = XIAP displacement; E = human PMI inhibition; F = LYP phosphatase; G = TNAP activators
C=C(C)C(=O)O[C@H]1C/C(C)=C\C(=O)/C=C(\C)[C@H](O)[C@@H]2OC(=O)C(=C)[C@@H]21
  A: 44.6%; B: nt; C: 1.7%; D: nt; E: nt; F: -6.1%; G: nt

O=C(NC1CCCC1)c1sc(=S)n2c1[nH]c(=O)c1ccccc12
  A: -1.7%; B: 11.2%; C: 0.1%; D: 2.3%; E: -4.7%; F: -4.8%; G: 1

Cc1cccc(C(=O)Nc2cccc(C(=O)N3CCOCC3)c2)c1
  A: -17.7%; B: 6.4%; C: nt; D: -4.3%; E: 10.0%; F: -10.3%; G: 1.1

Cc1[nH]c2ccccc2c1C(=O)CCl
  A: -54.7%[20 µM]; B: -3.4%; C: nt; D: 0.0%; E: -5.1%; F: -5.7%; G: 1.1

COc1cc(CNc2ccc3[nH]c(=O)[nH]c3c2)ccc1OCc1ccccc1C
  A: -11.2%; B: nt; C: -5.5%; D: nt; E: nt; F: -3.1%; G: nt

Cc1nc2sc(C(N)=O)c(N)c2c2c1CCCC2
  A: 24.8%; B: nt; C: 3.2%; D: nt; E: nt; F: -8.6%; G: nt

O=C(Nc1ccc(N2CCN(C(=O)c3ccccc3F)CC2)cc1)c1cncc(Br)c1
  A: -8.7%; B: nt; C: 9.5%; D: nt; E: nt; F: -5.3%; G: nt

O=C(c1ccc(CN2CCc3ccccc3C2)cc1)N1CCc2ccccc2C1
  A: 18.2%; B: -5.8%; C: 2.3%; D: -0.3%; E: -5.8%; F: -10.5%; G: 1.1

COc1cccc2c1C(=O)c1c(O)c3c(c(O)c1C2=O)C[C@@](O)(C(C)=O)C[C@@H]3O[C@H]1C[C@H](N)[C@H](O)[C@H](C)O1
  A: 37.9%; B: 32.8%; C: -1.9%; D: -7.5%; E: -5.3%; F: -5.6%; G: 1.2

Cc1ccc(-c2cn3cc([N+](=O)[O-])ccc3n2)cc1
  A: -4.0%; B: -13.5%; C: 7.4%; D: -11.1%; E: -16.6%; F: 1.3%; G: 1

O=C(CCl)N(c1ccccc1)c1c[nH]c2ccccc12
  A: 2.5%; B: 3.4%; C: 2.2%; D: -7.3%; E: 9.7%; F: -11.4%; G: 1.1

Cc1ccc(C(=O)O/N=C(\N)c2ccccn2)c(C)c1
  A: 8.8%; B: nt; C: -0.7%; D: nt; E: nt; F: -7.5%; G: nt

Cc1ccc(C(=O)N/N=C/c2ccc([N+](=O)[O-])s2)cc1
  A: 0.3%; B: -10.2%; C: 3.7%; D: -3.3%; E: -14.3%; F: -1.4%; G: 1.1

CCN1/C(=C/c2ccc3cc(C)ccc3[n+]2CC)Sc2cc(C)ccc21
  A: -19.4%; B: 15.0%; C: 12.5%; D: 1.8%; E: 24.4%; F: 43.3%; G: 0.8

CCOC(=O)c1sc(NC(=O)CSc2nc(C)cc(C)n2)c(C#N)c1C
  A: -22.8%; B: 6.0%; C: 6.5%; D: -17.0%; E: 4.2%; F: -0.7%; G: 1.2

COc1cccc(NC(=O)Nc2nc(-c3ccc(OC)c(OC)c3)cs2)c1
  A: -176.3%; B: nt; C: -6.2%; D: nt; E: nt; F: -4.7%; G: nt

COc1ccc(-c2cc(=O)oc3c(C)c(O)ccc23)cc1
  A: -14.3%; B: nt; C: -2.9%; D: nt; E: nt; F: -11.0%; G: nt

CCN1C/C(=C/c2ccc(OC)c(O)c2)C(=O)/C(=C/c2ccc(OC)c(O)c2)C1
  A: -4.7%; B: 36.6%; C: -3.3%; D: -3.7%; E: -4.9%; F: -0.5%; G: 0.4

O=C(CSc1nc2ccccc2s1)c1ccc(O)cc1O
  A: -42.9%; B: nt; C: 0.4%; D: nt; E: nt; F: -1.4%; G: nt

N#C/C(=C(/O)COC(=O)CSc1ccc2ccccc2c1)c1nc2ccccc2[nH]1
  A: 15.3%; B: 5.1%; C: 1.1%; D: -1.2%; E: 7.5%; F: -0.3%; G: 2.1

O=C(NC1CCCCC1)C(c1cccnc1)N(C(=O)CCl)c1cccc(Cl)c1 (configuration not stated)
  A: 19.8%; B: -6.0%; C: -2.4%; D: -5.4%; E: -2.1%; F: -6.9%; G: 1

Cc1ccc(N=Nc2ccc(O)c3ncccc23)cc1C
  A: 60.3%*; B: -0.5%; C: -7.6%; D: -3.2%; E: -13.5%; F: -5.6%; G: 0.8

CCOc1cc(S(=O)(=O)NCc2ccncc2)ccc1Cl
  A: -4.9%; B: 3.4%; C: -1.3%; D: -2.5%; E: 7.3%; F: -2.5%; G: 1.2

O=S(=O)(c1ccc2c(c1)OCCO2)N1CCN(c2ncnc3sccc23)CC1
  A: -15.6%; B: -3.5%; C: -5.7%; D: -5.8%; E: -3.7%; F: -6.3%; G: 1.1

C/C(=N\NC(=O)c1ccc(CN2CCc3ccccc3C2)cc1)c1ccccc1O
  A: -33.0%; B: -10.0%; C: 6.4%; D: -15.4%; E: -18.2%; F: -6.7%; G: 1.1

# The list goes on:
molecule | KOR beta-arrestin-1 | PMI inhibition | KOR beta-arrestin-2 | XIAP displacement | human PMI inhibition | LYP phosphatase | TNAP activators
O=C1/C(=C/c2ccc(O)c([N+](=O)[O-])c2)SC(=S)N1Cc1ccccc1 | -30.2% | -7.7% | -3.8% | -4.4% | -5.4% | 0.8% | 0.7
Cc1cc(-c2ccc(C)c(S(=O)(=O)N3CCN(c4ccc(F)cc4)CC3)c2)on1 | -34.7% | nt | 0.0% | nt | nt | -6.1% | nt
Cc1cc(Cl)c(S(=O)(=O)N2CCN(c3ccc(F)cc3)CC2)cc1OCC(=O)NC1CCCCC1 | -64.3% | 2.9% | 8.0% | 0.0% | 5.4% | 9.3% | 1.2
COC(=O)c1ccccc1NC1=C/C(=N\S(=O)(=O)c2ccc(C(=O)O)cc2)c2ccccc2C1=O | -57.8% | nt | 2.2% | nt | nt | -3.5% | nt
C/C(=N\Nc1ncnc2sc(C)c(C)c12)c1ccccn1 | nt | nt | 0.2% | nt | nt | -5.1% | nt
COc1cccc(-c2coc3c(C)c4oc(=O)c(CCC(=O)O)c(C)c4cc23)c1 | -4.6% | nt | -1.8% | nt | nt | 4.2% | nt

# 14 entries from above, with values under each structure:
# Below each SMILES – KOR beta-arrestin-1, PMI inhibition, KOR beta-arrestin-2, XIAP displacement, human PMI inhibition, LYP phosphatase, TNAP activators
CCN1C/C(=C/c2ccc(OC)c(O)c2)C(=O)/C(=C/c2ccc(OC)c(O)c2)C1
→ -4.7%, 36.6%, -3.3%, -3.7%, -4.9%, -0.5%, 0.4
O=C(CSc1nc2ccccc2s1)c1ccc(O)cc1O
→ -42.9%, nt, 0.4%, nt, nt, -1.4%, nt
N#C/C(=C(/O)COC(=O)CSc1ccc2ccccc2c1)c1nc2ccccc2[nH]1
→ 15.3%, 5.1%, 1.1%, -1.2%, 7.5%, -0.3%, 2.1
O=C(NC1CCCCC1)C(c1cccnc1)N(C(=O)CCl)c1cccc(Cl)c1 (configuration not stated)
→ 19.8%, -6.0%, -2.4%, -5.4%, -2.1%, -6.9%, 1
Cc1ccc(N=Nc2ccc(O)c3ncccc23)cc1C
→ 60.3%*, -0.5%, -7.6%, -3.2%, -13.5%, -5.6%, 0.8
CCOc1cc(S(=O)(=O)NCc2ccncc2)ccc1Cl
→ -4.9%, 3.4%, -1.3%, -2.5%, 7.3%, -2.5%, 1.2
O=S(=O)(c1ccc2c(c1)OCCO2)N1CCN(c2ncnc3sccc23)CC1
→ -15.6%, -3.5%, -5.7%, -5.8%, -3.7%, -6.3%, 1.1
C/C(=N\NC(=O)c1ccc(CN2CCc3ccccc3C2)cc1)c1ccccc1O
→ -33.0%, -10.0%, 6.4%, -15.4%, -18.2%, -6.7%, 1.1
O=C1/C(=C/c2ccc(O)c([N+](=O)[O-])c2)SC(=S)N1Cc1ccccc1
→ -30.2%, -7.7%, -3.8%, -4.4%, -5.4%, 0.8%, 0.7
Cc1cc(-c2ccc(C)c(S(=O)(=O)N3CCN(c4ccc(F)cc4)CC3)c2)on1
→ -34.7%, nt, 0.0%, nt, nt, -6.1%, nt
Cc1cc(Cl)c(S(=O)(=O)N2CCN(c3ccc(F)cc3)CC2)cc1OCC(=O)NC1CCCCC1
→ -64.3%, 2.9%, 8.0%, 0.0%, 5.4%, 9.3%, 1.2
COC(=O)c1ccccc1NC1=C/C(=N\S(=O)(=O)c2ccc(C(=O)O)cc2)c2ccccc2C1=O
→ -57.8%, nt, 2.2%, nt, nt, -3.5%, nt
C/C(=N\Nc1ncnc2sc(C)c(C)c12)c1ccccn1
→ nt, nt, 0.2%, nt, nt, -5.1%, nt
COc1cccc(-c2coc3c(C)c4oc(=O)c(CCC(=O)O)c(C)c4cc23)c1
→ -4.6%, nt, -1.8%, nt, nt, 4.2%, nt

# Source: PubChem

# Not all compounds are listed; rates above refer to the full screens.
